Screening results deposited in PubChem by Fisher Drug Discovery Resource Center.
NPYLR7 ag: agonists of mosquito NPYLR7 receptor, primary screen, cell-based, Aedes aegypti, calcium fluorescence, mosquito biting behavior. Aedes aegypti neuropeptide Y-like receptor 7 (NPYLR7). HEK293T NPYLR7/Galpha15, GCaMP6s calcium fluorescence. activation, % at 10 µM. hit rate 0.15% among 270,000; in the data active = activation above about 40%;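 note: 0% = vehicle and 100% = reference agonist at the receptor; some compounds past the cut are filed as inactive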
NPYLR7 ag max-min: further read-out of NPYLR7 ag, marked with its call; activation, %; measured here: Max-Min RFU normalised activation; some inactives read as strong as hits;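 span of the calcium signal over five minutes; 0% = vehicle and 100% = native peptide agonist; compound fluorescence can raise it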
Starred values were filed as active, the others as inactive; & = joins results of further samples. This is a subset; count on the stated rates, not on these rows.

SMILES | NPYLR7 ag | NPYLR7 ag max-min
CCOC(=O)CCCn1ncn2c(cc3sc(CC)cc32)c1=O | 3.0 | -0.2
O=C(CN1CN(c2ccccc2)C2(CCN(C(=O)c3ccccc3Cl)CC2)C1=O)NCc1ccc(F)cc1 | 28.6 | 28.2
OCCC#Cc1ccc(-c2nccn2-c2ccc3cn[nH]c3c2)cc1 | 31.1 | 11.1
CC(=O)c1ccc(NC(=O)Nc2ccc3nc(-c4cccs4)nn3c2)cc1 | 2.7 | -5.5
COc1ccc(Cc2nnc(SCC(=O)Nc3c(C)cc(C)cc3C)[nH]c2=O)cc1 | -2.4 | -2.8
COc1ccc(Br)cc1S(=O)(=O)N1CCN(C)CC1 | -1.3 | 7.8
CNC(=O)c1cc(N(C)S(=O)(=O)c2ccc(C)c(NC(C)=O)c2)ccn1 | -0.6 | -1.8
Cc1ccccc1-c1ncc(CN2CCC(CO)(CCOc3ccccc3)CC2)cn1 | 5.5 | 11.0
N#CC1C(=N)S[C@@H](C(=O)c2ccc(F)cc2)[C@@H]1c1ccc(F)cc1 (stereo partly drawn) | 9.5 | 3.2
CCOC1CCN(C(=O)/C=C/c2ccc(OCC(N)=O)cc2)CC1 | -1.4 | -2.4
CCOC(=O)c1cc(-c2ccc(F)cc2)n(C2CCN(C(=O)c3cccc(F)c3)CC2)n1 | 25.1 | 17.6
CCOC(=O)C1CCC(CNC(=O)N2CCCC2c2cc(C(C)C)on2)CC1 (stereo not drawn) | -19.7 | -27.2
O=C(Nc1ccccc1)N1CCCCCC1C1CCN(Cc2nnnn2C2CC2)CC1 (stereo not drawn) | 3.4 | 0.9
COC(=O)c1ccc(N2C(=O)CC(NCc3ccc(OC)cc3)C2=O)cc1 (stereo not drawn) | -1.1 | -1.4
Cc1c(Cl)cccc1NC=C1C(=O)OC2(CCCCC2)OC1=O | 8.2 | 6.7
Cc1nc2ccc(C(=O)Nc3ccc4c(c3)OCC(=O)N4)cn2c1N(C)C(=O)CCc1ccccc1 | 16.3 | 11.0
COCC(O)CNc1ccc(-n2nc(OC)nc2-c2ccc3c(c2)OCO3)cc1 (stereo not drawn) | -3.8 | 1.8
COc1ccc(NS(=O)(=O)c2cn(C)c(=O)n(C)c2=O)c(OC)c1 | 0.6 | -0.1
O=C(c1cc(COc2cncc(Cl)c2)on1)N(CCO)Cc1cccs1 | 2.1 | -1.1
Cc1cc(C(F)(F)F)nn1CC(=O)NN1C(=O)c2ccccc2C1=O | -6.2 | -10.7
O=[N+]([O-])c1cccc(CN2CCCn3cccc3C2c2cccc(C(F)(F)F)c2)c1 (stereo not drawn) | 0.3 | -2.1
Cc1nc(CC(=O)N2CCC(C(O)c3ccccn3)CC2)cs1 (stereo not drawn) | -3.8 | -7.2
Cc1ccc2oc(-c3cccc(NC(=O)c4ccc(F)cc4)c3C)nc2c1 | 16.2 | 6.9
CCCN1C(=O)C(=Cc2c(N3CCOCC3)nc3ccc(C)cn3c2=O)SC1=S | 1.9 | -0.2
CC(Oc1ccccc1)C(=O)N1CCN(c2ccc(NCc3ccccc3)nn2)CC1 (stereo not drawn) | -2.6 | -3.5

Some of the entries above, set out differently:
smiles	NPYLR7 ag	NPYLR7 ag max-min
CC(Oc1ccccc1)C(=O)N1CCN(c2ccc(NCc3ccccc3)nn2)CC1 (stereo not drawn)	-2.6	-3.5
CC(=O)c1ccc(NC(=O)Nc2ccc3nc(-c4cccs4)nn3c2)cc1	2.7	-5.5

Back to the main list; the five compounds before the break are reprinted first.
SMILES | NPYLR7 ag | NPYLR7 ag max-min
O=[N+]([O-])c1cccc(CN2CCCn3cccc3C2c2cccc(C(F)(F)F)c2)c1 (stereo not drawn) | 0.3 | -2.1
Cc1nc(CC(=O)N2CCC(C(O)c3ccccn3)CC2)cs1 (stereo not drawn) | -3.8 | -7.2
Cc1ccc2oc(-c3cccc(NC(=O)c4ccc(F)cc4)c3C)nc2c1 | 16.2 | 6.9
CCCN1C(=O)C(=Cc2c(N3CCOCC3)nc3ccc(C)cn3c2=O)SC1=S | 1.9 | -0.2
CC(Oc1ccccc1)C(=O)N1CCN(c2ccc(NCc3ccccc3)nn2)CC1 (stereo not drawn) | -2.6 | -3.5
CC(CCc1ccco1)Nc1nc(C2CCCC2)nc2c1CNC2 (stereo not drawn) | 9.5 | 6.2
CNC(=O)C1Cc2ccccc2CN1S(=O)(=O)Cc1ccc(F)cc1 (stereo not drawn) | 3.5 | 4.1
O=C(CCc1ccccc1)Nc1ccc(Nc2cc(-n3ccnc3)ncn2)cc1 | -18.2 | -22.4
Cc1nnc(SCC(=O)NCCc2cccs2)n1-c1ccccc1 | 10.8 | 2.3
CCOC(=O)c1c(N/N=C\c2ccncc2)n[nH]c1C | -0.4 | 0.3
Cn1c(=O)n(CC(=O)NCC2(c3ccccc3)CCC2)c2ccccc21 | 2.9 | 1.5
COc1ccc2c(c1)CCc1cc(CCC(=O)NCc3cccc(Cl)c3)n(-c3ccc4ncsc4c3)c1-2 | 20.7 | 12.2
O=C(c1ccoc1)N1CCc2[nH]c3ccc(Cl)cc3c2C1 | 6.7 | 6.4
O=C(c1cc(-c2cccnc2)nc2ccccc12)N1CC[C@H]2CC[C@@H](C1)N2 | 1.7 | 24.9
Cc1cc(C(=O)O)cc(C)c1OCc1cccnc1 | 0.4 | -0.3
COc1ccc(NS(=O)(=O)c2ccc(F)c(F)c2F)c(C(=O)NCc2ccccc2)c1 | -3.5 | -8.0
CCCCN(C1=NC2CS(=O)(=O)CC2S1)c1cc(C)cc(C)c1 (stereo not drawn) | 0.9 | -1.8
O=C(c1cccc(OCC(F)(F)F)n1)N1CCN(C2CC2)CC1 | 2.0 | 3.1
Cc1oc(-c2cccs2)nc1CN(C)C1CCCc2ccccc21 (stereo not drawn) | -2.9&17.5 | -3.1&4.0
CC1=C(C(=O)NCC2CCCO2)C2(CCCCC2)OC1=O (stereo not drawn) | 6.8 | 8.3
COc1ccc(CN2CCNC(=O)C2CC(=O)NCc2ccccc2Cl)c(OC)c1 (stereo not drawn) | -2.9 | -4.4
COc1cc(C=C2N=C(c3ccc(F)cc3)OC2=O)cc(Br)c1OC(C)=O | 5.5 | 3.8
CC(C)c1nc(CN(C)C(=O)CCc2nc(-c3ccccc3F)no2)cs1 | 4.0 | -5.2
Cc1c(C#N)c(NC(=O)CSc2nnnn2C2CCCC2)n(CC2CCCO2)c1C (stereo not drawn) | 2.4 | 2.5
Cc1nc2scc(-c3cccs3)c2c(=O)[nH]1 | 2.8 | 1.6
Cc1ccc(N=Cc2ccc3c(c2)OCO3)cc1F | 4.8 | 3.1
C=C1N(N(C(C)=O)C(C)=O)C(=O)OC1(C)Cc1ccccc1 (stereo not drawn) | -6.3 | -8.2
Cc1ccc(-c2nnn(CC(O)CN3CCC(C)CC3)n2)cc1 (stereo not drawn) | -5.6 | -4.4
Cc1oc(-c2cccc(Oc3ccccc3)c2)nc1CN1CCN(c2ccccc2O)CC1 | 13.0 | -0.8
Cc1ccc2nc(-c3ccccc3)cc(C(=O)NCc3ccccc3)c2c1 | -1.1 | -11.7
Next part:
SMILES | NPYLR7 ag | NPYLR7 ag max-min
COC(=O)Cn1c(CN2CCCCC2C)nc2c1c(=O)n(C)c(=O)n2C (stereo not drawn) | 1.3 | -0.9
Cc1ccc2nc(C)c(NC(=O)c3ccc(S(=O)(=O)N4CCCC4)cc3)c(=O)n2c1 | 3.0 | 2.3
COC(=O)C(C)N(Cc1nnc(-c2cccc(C)c2)o1)C1CC1 (stereo not drawn) | -1.7 | -3.6
O=C1C[C@@H]2CCN(Cc3ccccc3)C[C@@H]2CCN1C1CCCCC1 | -7.3 | -17.1
CN1C(=O)C(CC(=O)NCc2nc3cc(C(C)(C)C)ccc3o2)N(C)C1=O (stereo not drawn) | 0.0 | -2.4
CC1=NN(CCN2CCCCC2)c2nc3c(c(=O)n(CCN4CCCCC4)c(=O)n3C)n2C1 | 8.3 | 12.8
Cc1ccccc1CSCC(=O)N1CCC2(CC1)CNC(=O)C2 | 9.2 | 6.3
Cc1nc(-c2cccc(Br)c2)ccc1C(=O)NCc1ccc(C(=O)N2CCCC2)cc1 | -5.3 | -11.0
Cc1cc(C)n(CC(=O)NNC(=O)C2=Cc3ccccc3OC2)n1 | -1.2 | -2.3
CC(C)(C)OC(=O)N1CCC(Oc2ccc(NC(=O)CCCOc3ccccc3)cc2)C1 (stereo not drawn) | -5.4 | -11.0
N#Cc1nccnc1NC1CCCN(c2ccc(OC(F)F)cc2)C1 (stereo not drawn) | 4.7 | 2.3
O=C(Cn1cc(S(=O)(=O)N2CCCC2)ccc1=O)Nc1cc(F)cc(F)c1 | -6.1 | -9.8
CCCCC(O)CN(Cc1c(C)nn(-c2ccccc2)c1Oc1cccc(F)c1)CC1CCCO1 (stereo not drawn) | -5.1 | -5.7
Cn1c(=O)c2c(ncn2CC(=O)N2CCCc3ccccc32)n(C)c1=O | 10.5 | 14.9
Cc1ccc2cc(CN(C)Cc3nc(C)no3)c(N3CCOCC3)nc2c1 | -1.1 | -9.0
O=C(Oc1ccc(Br)cc1)c1ccc(S(=O)(=O)N2CCCCCC2)cc1 | 18.1 | 9.3
CC(C)CC(NC(=O)C(=O)N1CCc2ccccc2C1)c1ncnn1C (stereo not drawn) | 7.3 | 4.6
O=C(c1cnn2c1NC(c1ccccc1)CC2C(F)F)N1N=C(C(F)F)CC1(O)C(F)F (stereo not drawn) | 1.5 | 6.0
CCNC(=O)CSc1nnc(-c2c[nH]c3ccccc23)n1C1CC1 | 1.3 | 32.4
CC(=O)NCC1=CCN(Cc2cc(=O)[nH]c(C)n2)CC1 | 25.8 | 16.2
COc1ccc(-c2csc(NC(=O)c3cccs3)n2)cc1F | 9.1 | 14.1
c1ccc2c(Cc3c[nH]c4ccccc34)c[nH]c2c1 | 1.4 | 0.8
COc1ccc(Cl)c2sc(N(Cc3cccnc3)C(C)=O)nc12 | 8.6 | 3.4
CCCCC(CC)COC(=O)CC(C(=O)OCC(CC)CCCC)S(=O)(=O)O (stereo not drawn) | -13.6 | 2.6
COC(=O)CCc1c(C)nn(-c2ccc(C(=O)NCCc3ccccn3)cc2)c1C | 17.0 | 8.1
Remaining list, next part
SMILES | NPYLR7 ag | NPYLR7 ag max-min
Cc1ccc(N2C(=O)CSC2c2ccccc2NC(=O)c2ccc(Cl)cc2Cl)cc1 (stereo not drawn) | 1.1 | 9.2
CC(Oc1ccc2c(c1)OCO2)C(=O)N1CCN(c2ccc3nnc(C4CC4)n3n2)CC1 (stereo not drawn) | 1.7 | 6.8
N#CCSc1ccccc1C(=O)NCc1ccccc1F | -0.2 | -2.8
CCC(OC1CCCC1)C(=O)Nc1ccc(C)c(-n2nnnc2C)c1 (stereo not drawn) | 0.0 | 8.7
Cc1ccc2oc(-c3ccc(NC(=O)c4ccc(Cl)c([N+](=O)[O-])c4)cc3O)nc2c1 | -3.8 | -8.9
Cc1nc(SCC#N)c(C#N)c(C)c1Cl | 5.7 | 1.0
COc1ccc(C(=O)OCCC2CCCCN2C2=NS(=O)(=O)c3ccccc32)c(OC)c1 (stereo not drawn) | 10.6 | 9.4
CSc1ccc(CN2CCCC(CCC(=O)Nc3ccccc3F)C2)cc1 (stereo not drawn) | 1.9 | -3.6
COCCCNC(=O)c1cc2cn(Cc3cccs3)cc2cn1 | 16.6 | 11.0
COc1cc(Cn2c(-c3nnc(C(C)C)o3)cc3ccccc32)cc(OC)c1 | 3.4 | -0.8
O=C(Nc1cccc(Cl)c1Cl)N1CCN(c2nc(Cc3ccc(Cl)cc3)ns2)CC1 | -2.0 | 9.5
NCC1(CN2CCOCC2)CCCCC1 | 25.4 | 20.9
CCN1C(=O)C2(Nc3ccccc3-c3cc(C)nn32)c2ccccc21 (stereo not drawn) | 2.4 | 1.0
Cc1cc2oc(=O)cc(C)c2cc1NC(=O)C(C)(C)Oc1ccccc1 | -3.7 | -5.4
CS(=O)(=O)Oc1ccc(Cl)cc1CN(CC1CCCO1)C(=O)c1cccc(F)c1 (stereo not drawn) | 17.3 | 18.2
CC(C)CCNC(=O)NC(=O)CSc1nccn1C | -1.9 | -4.7
Cc1nnsc1C(=O)NCc1cnn2ccccc12 | 8.5 | 6.8
COc1cn(CC(=O)Nc2cc(C)ccc2C)c(CSc2nnnn2C)cc1=O | -1.0 | -3.8
O=C(O)c1cc(CCc2ccccc2)ccc1O | 9.9 | 9.0
O=C(c1cccc(F)c1)N1CCCC(OCc2cccnc2)C1 (stereo not drawn) | 29.0 | 25.0
COc1ccc(-c2ccc3c(c2)N(Cc2cc(F)cc(F)c2)C(=O)COC3)cn1 | 7.5 | 2.2
COc1ccc(C2C3C(=O)CC(C)(C)CC3=Nc3ccccc3N2C(=S)Nc2ccccc2)cc1OC (stereo not drawn) | -5.1 | -2.6
C=Cc1ccc(Cn2c(C)c(C(=O)N(C)Cc3ccc(F)cc3)sc2=O)cc1 | -6.8 | -4.0
COCCOCC(=O)N1CCN(Cc2ccc(-c3noc(CC(C)C)n3)cc2)CC1 | -3.3 | -9.1
O=C(c1ccccc1OC1CCN(Cc2ccc(-n3cccn3)cc2)CC1)N1CCCCC1 | 16.3 | 5.6
C=CCn1c(=NC(=O)C2=COCCO2)sc2cc(C(=O)OC)ccc21 | 0.2 | -3.7
CCN(CC)c1ncccc1CNC(=O)C1CCc2nn(C)c(=O)n2C1 (stereo not drawn) | 3.3 | 3.6
Oc1cccc(Nc2nccc3[nH]c(-c4ccccc4)nc23)c1 | -0.6 | -6.7

Pulled one by one from above (four):
SMILES | NPYLR7 ag | NPYLR7 ag max-min
Oc1cccc(Nc2nccc3[nH]c(-c4ccccc4)nc23)c1 | -0.6 | -6.7
N#CCSc1ccccc1C(=O)NCc1ccccc1F | -0.2 | -2.8
O=C(c1cccc(F)c1)N1CCCC(OCc2cccnc2)C1 (stereo not drawn) | 29.0 | 25.0
CCC(OC1CCCC1)C(=O)Nc1ccc(C)c(-n2nnnc2C)c1 (stereo not drawn) | 0.0 | 8.7
